Source: PubChem BioAssay (National Center for Advancing Translational Sciences (NCATS))
TRPV1 potentiator: HTS Assay for Compounds that Act as Potentiators of the Vanilloid Receptor 1; Transient receptor potential cation channel subfamily V member 1 (Homo sapiens), Q8NER1; hit rate 0.02% among 320,000; AID 540277, 2011; TRPV1-expressing cells, Fluo-8 calcium influx, capsaicin EC20 potentiation; host cell line not named in the record; control for the full effect not named in the record; potentiation, % at 8.33 µM; active means potentiation above 80%; inconclusive means 30% to 80%; inactive means below 30%; further: 0% is about no effect
Target sequence (Q8NER1 whole entry, looked up): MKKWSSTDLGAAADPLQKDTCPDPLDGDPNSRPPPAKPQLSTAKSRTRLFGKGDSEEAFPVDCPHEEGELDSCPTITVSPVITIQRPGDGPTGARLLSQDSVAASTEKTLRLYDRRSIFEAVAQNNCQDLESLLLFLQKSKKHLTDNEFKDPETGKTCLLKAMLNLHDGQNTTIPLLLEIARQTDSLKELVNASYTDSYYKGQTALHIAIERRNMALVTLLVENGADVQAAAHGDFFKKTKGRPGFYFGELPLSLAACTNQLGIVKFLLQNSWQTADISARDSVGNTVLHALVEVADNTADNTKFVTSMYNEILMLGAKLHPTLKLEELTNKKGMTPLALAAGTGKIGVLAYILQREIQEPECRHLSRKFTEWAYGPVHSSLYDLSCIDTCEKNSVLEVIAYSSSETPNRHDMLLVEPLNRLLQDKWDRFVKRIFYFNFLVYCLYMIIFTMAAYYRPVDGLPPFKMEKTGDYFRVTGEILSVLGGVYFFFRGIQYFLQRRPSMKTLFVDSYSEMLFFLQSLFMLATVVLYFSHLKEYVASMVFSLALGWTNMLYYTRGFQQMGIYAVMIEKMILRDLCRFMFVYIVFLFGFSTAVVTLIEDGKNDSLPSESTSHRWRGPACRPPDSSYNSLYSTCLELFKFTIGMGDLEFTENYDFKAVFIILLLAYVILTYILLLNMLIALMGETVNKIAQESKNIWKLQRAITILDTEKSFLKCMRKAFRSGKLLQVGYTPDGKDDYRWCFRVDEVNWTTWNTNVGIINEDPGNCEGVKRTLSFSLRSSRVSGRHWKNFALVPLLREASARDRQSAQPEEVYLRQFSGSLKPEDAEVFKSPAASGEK
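Fluo-8 calcium influx in TRPV1-expressing cells, kinetic read (ex 480/em 520 nm). Compound added and read 3 min for agonist activity, followed by capsaicin at EC20 final and 2 min further read for enhancement.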
D2 PAM: Beta-Arrestin HTS for Positive Allosteric Modulators of the Human D2 Dopamine Receptor: Potentiators. D(2) dopamine receptor (Homo sapiens), P14416. hit rate 0.23% among 360,000. DiscoveRx D2 beta-arrestin cells, luminescence, 90 min; 100% = 57 uM dopamine signal. potentiation, % (no concentration beside the values); active = potentiation of 50% or more; inconclusive = 30% to 50%; inactive = 30% or less;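 further: compound concentration not given in the record; tested on top of an EC20 dose of dopamine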
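D2 cells co-treated with compound plus 50 nM dopamine (EC20) for 90 min at 37 deg C to detect potentiation. Beta-arrestin recruitment was read as enzyme-fragment luminescence after 1 h at ambient temperature. Full response was set by 57 uM dopamine.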
gsp antag: qHTS for Antagonists of gsp, the Etiologic Mutation Responsible for Fibrous Dysplasia/McCune-Albright Syndrome: qHTS; gsp-mutant cells, cAMP HTRF, 30 min; control for the full effect not named in the record; Potency, µM (series often up to 76.9 µM), for inactives: top-dose activity change, negative = inhibition, hits mostly inhibitors; hit rate 0.4% among 340,000; AID 624288, 2012; active = falling curve of any shape with a large fitted effect; inconclusive = falling curve, mostly with a smaller effect; inactive = flat or rising curve; cell line not stated here;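 further: intracellular cAMP measured with PDE inhibitor Ro 20-1724 present during compound exposure; potency means the concentration at half of the fitted maximal effect; on the % scale 0 is the no-effect control and ±100 the full control effect; nearly all actives have a fitted effect of over 65% in size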
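Cells in G418 medium, seeded 16-24 h, 37C; buffer exchange to DPBS + 1 mM CaCl2, 0.5 mM MgCl2, 0.05% BSA; cpds in DMSO + […] (300 uM stock), 30 min 37C; HTRF cAMP detection.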
Menin-MLL FL inh: qHTS Assay for Inhibitors Targeting the Menin-MLL Interaction in MLL Related Leukemias: Competition With Fluorescein Labeled MLL-derived Peptide | Fluorescence polarization, fluorescein-MLL peptide displacement from menin | FP activity change, % at 61.4 µM | 290,000 tested, under 10 active | AID 1766, 2009; inconclusive = falling polarisation curve, or a change in total fluorescence; inactive = total fluorescence flat and polarisation flat or rising; no compound was filed as active; the % refers to the polarisation; negative = inhibition;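 further: % of control where 0% means no effect; inhibitors lower the polarisation; unlabelled MLL peptide was the positive control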
gsp agonist: qHTS for Agonist of gsp, the Etiologic Mutation Responsible for Fibrous Dysplasia/McCune-Albright Syndrome: qHTS; gsp mutant cells, cAMP HTRF, 30 min; control for the full effect not named in the record; Potency, µM (highest dose often 76.9 µM), for inactives: top-dose activation (cAMP increase), hits mostly activators; hit rate 0.13% among 340,000; AID 624287, 2012; active = well fitted activation curve with a large enough effect; inconclusive = small, poorly fitted or top-dose-only effect, or another doubt; inactive = no such curve, though single readings can be large or run the other way; cell line not stated here;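 further: phosphodiesterase inhibitor Ro 20-1724 added with compounds to block cAMP breakdown; potency means the concentration at half of the fitted maximal effect; nearly all actives have a fitted effect of over 60% in size; about a fifth of the inactives were tested at one dose only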
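Cells in DMEM/10% FBS with G418 were pretreated with compounds in DMSO plus […] (300 uM stock) for 30 min at 37C. cAMP was measured by HTRF (cAMP-d2 plus anti-cAMP antibody-K) after 30 min at room temperature.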
Sfp PPTase inh: qHTS Assay for Inhibitors of Bacillus subtilis Sfp phosphopantetheinyl transferase (PPTase) | hit rate 3.5% among 310,000 | Biochemical Sfp PPTase activity, qHTS | 4'-phosphopantetheinyl transferase ffp (Bacillus subtilis), Q9F4F7 | AID 1490, 2009 | Potency, µM, for the others: max response, negative = inhibition, most hits filed as inhibitors; active means well fitted inhibition curve with a large enough effect; inconclusive means small, poorly fitted or top-dose-only effect, or another doubt; inactive means no such curve, though single readings can be large or run the other way;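 further: the enzyme is Sfp with the accession as filed and its product quenches rhodamine fluorescence; potency means the concentration at half of the fitted maximal effect; 0% = enzyme reaction without inhibitor and -100% = no enzyme wells; top concentration of the series not given in the record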
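Reaction rates are the 30-min fluorescence difference (ex 525, em 598 nm) in wells containing 15 nM Sfp, 5 uM rhodamine-CoA and 12.5 uM BHQ-2-YbbR at pH 7.6 with 10 mM MgCl2.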
ClpP mod: qHTS Assay for Activators of ClpP | ATP-dependent Clp protease proteolytic subunit (Bacillus subtilis (strain 168)), P80244 | purified B. subtilis ClpP, FRET peptide cleavage, 20 min | Potency, µM (series often up to 57.5 µM), inactives show at the highest dose activity change, negative = active | hit rate 1.9% among 340,000 | AID 651965, 2013; active = well fitted falling curve with a large enough effect; inconclusive = small, poorly fitted or top-dose-only effect; inactive = no such curve, though single readings can be large or run the other way; further: potency means the concentration at half of the fitted maximal effect; the source files actives as falling curves though it sought activators and does not explain the sign; nearly all actives have a fitted effect of over 65% in size; many hits overshoot -100%
Target sequence (P80244 whole entry, looked up): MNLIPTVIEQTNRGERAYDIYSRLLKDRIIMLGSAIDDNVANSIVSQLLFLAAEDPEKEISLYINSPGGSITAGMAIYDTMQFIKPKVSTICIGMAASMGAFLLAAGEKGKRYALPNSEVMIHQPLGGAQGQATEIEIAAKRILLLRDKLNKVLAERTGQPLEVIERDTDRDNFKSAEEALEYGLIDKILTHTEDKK
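Purified B. subtilis ClpP, 10 microg/mL final in Tris/HCl pH8 with KCl, BSA, glycerol and Tween-20, cleaved an Abz/nitrotyrosine-quenched decapeptide. Fluorescence (ex 320, em 430) was read at 0 and 20 min at room temperature. Delta was normalized to 5.8 microM ADEP and DMSO/no-enzyme controls.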
Starred values were filed as active, the others as inactive; ? = inconclusive; · = not tested or not shown; [ ] = another dose, or the depositor's remark.

no.	SMILES	Menin-MLL FL inh	gsp antag	ClpP mod	TRPV1 potentiator
1	O=C(/C=C/c1ccc(OCCCF)cc1)Nc1ccnc(-c2cccnc2)n1	?	-18%	?	?
2	Cc1cccc(C)c1OCc1cc(C(=O)N2CCC(C3CCCCC3)C2)no1 (stereo not given)	·	-9%	-1.3%	·
3	Nc1nc(Cl)c(C=O)c(N2CCCCC2)n1	0.2	-1%	·	26
4	Cc1ccc(NC(=O)CNc2cccc(Br)c2)cc1S(=O)(=O)N1CCOCC1	·	-9%	-0.8%	·
5	COc1ccc2nc(COC(=O)c3cccc([N+](=O)[O-])c3)c(C(C)=O)[n+]([O-])c2c1	-3.1	3%	-1.0%	3
6	CC(C)CCn1nnnc1CN1CCN(c2ccccc2)CC1	0.4	12%	0.4%	-6
7	O=C(NC1CCCC1)c1ccc(CSCc2ccccc2F)o1	3.9	-10%	-1.5%	-12
8	CCCS(=O)(=O)N1CCCC(C(=O)NCc2cccnc2)C1 (stereo not given)	4.2	4%	-0.1%	-8
9	CC(NC(=O)CS(=O)(=O)c1ccccc1)c1ccccc1 (stereo not given)	·	2%	0.4%	5
10	N/C(=N\OC(=O)c1ccccc1Cl)c1ccncc1	0.8	7%	2.9%	2
11	Cc1ccccc1C(=O)Nc1nnc(S(=O)(=O)N(C)Cc2ccco2)s1	0.6	-16%	-4.8%	?
12	Cc1ccc(NC(=S)N2CCCC(c3ccccc3)=N2)cc1	0.8	-3%	-0.9%	-2

no.	Sfp PPTase inh	gsp agonist	D2 PAM
1	14%	?	10
2	·	-19%	-5
3	16%	-11%[15.4 µM]	-1
4	·	5%	4
5	6%	6%	2
6	-4%	-3%[15.4 µM]	-6
7	-1%	-35%[inhibitor]	-3
8	12%	?	3
9	23%	2%	-16
10	-2%	7%[15.4 µM]	19
11	45µM*	?	-1
12	-8%	-7%[15.4 µM]	1

Five entries already listed, ordered by their value in Menin-MLL FL inh, lowest first:
item | structure | Menin-MLL FL inh | Sfp PPTase inh | gsp agonist | D2 PAM
5 | COc1ccc2nc(COC(=O)c3cccc([N+](=O)[O-])c3)c(C(C)=O)[n+]([O-])c2c1 | -3.1 | 6% | 6% | 2
3 | Nc1nc(Cl)c(C=O)c(N2CCCCC2)n1 | 0.2 | 16% | -11%[15.4 µM] | -1
11 | Cc1ccccc1C(=O)Nc1nnc(S(=O)(=O)N(C)Cc2ccco2)s1 | 0.6 | 45µM* | ? | -1
10 | N/C(=N\OC(=O)c1ccccc1Cl)c1ccncc1 | 0.8 | -2% | 7%[15.4 µM] | 19
7 | O=C(NC1CCCC1)c1ccc(CSCc2ccccc2F)o1 | 3.9 | -1% | -35%[inhibitor] | -3

New compounds follow.
no.	SMILES	Menin-MLL FL inh	gsp antag	ClpP mod	TRPV1 potentiator
13	CCc1cccc(NC(=O)C2CCCN(c3cnccn3)C2)c1 (stereo not given)	0.6	-8%	-17%	-7
14	O=C1CC(SCCc2nc3ccccc3[nH]2)C(=O)N1c1ccc(F)cc1 (stereo not given)	4.3	3%	-6.8%	-6
15	COC(=O)c1cc(NC(=O)COC(=O)CCc2nc3ccccc3c(=O)[nH]2)cc(C(=O)OC)c1	·	5%	-11%	·
16	Cc1ccc(NC(=O)CSc2nc3ccccc3c(=O)n2CCCC(=O)NCCCN2CCOCC2)cc1C	2.9	-8%	-2.4%	4
17	CN1CCNC(=O)C1CC(=O)NCCC1=CCCCC1 (stereo not given)	0.1	-15%	-3.8%	3
18	COc1ccc(NC(=O)CC23CC4CC(C2)CC(n2nnc(C)n2)(C4)C3)cc1	-2.1	-7%	·	9
19	O=C(O)C(=Cc1ccnc2ccccc12)C(=O)O	·	·	-26%	·
20	CSC(=Nc1ccc(Cl)cc1)N[n+]1ccccc1	-0.2	1%	-0.7%	3
21	NS(=O)(=O)c1ccc(NC(=S)NCc2ccc(Cl)cc2)cc1	-1.3	6%[15.4 µM]	-6.2%	-4
22	CCOCC(=O)Nc1nnc(C)s1	2.8	17%	1.4%	7
23	Cc1ccc(NC(=O)CN2CCN(Cc3ccccc3)CC2)c(Br)c1	1.8	-7%	1.1%	1
24	COc1ccccc1NC(=O)C(=O)N/N=C(\C)CC(=O)Nc1ccccc1C(F)(F)F	1.8	2%	·	0

no.	Sfp PPTase inh	gsp agonist	D2 PAM
13	6%	-64%[inhibitor]	-17
14	-6%	7%	-10
15	·	-7%	-16
16	-18%	-1%[15.4 µM]	-8
17	8%	-48%[inhibitor]	-7
18	13%	29%	-5
19	·	-18%	0
20	-4%	-5%	9
21	22µM*	-16%	1
22	-1%	?	3
23	-2%	24%	-2
24	-1%	-11%[15.4 µM]	-6

New compounds follow
no.	SMILES	Menin-MLL FL inh	gsp antag	ClpP mod	TRPV1 potentiator
25	O=C(CN1C(=O)NC2(CCCC2)C1=O)N1CCN(S(=O)(=O)c2ccc(Cl)c(C(F)(F)F)c2)CC1	·	-4%	-0.5%	13
26	Cc1ccc(-n2ncc(Cl)c2C(=O)NC2CC2)cc1	4.1	2%	·	-4
27	Cc1ccccc1Nc1nc(N)nc(COC(=O)c2c(C)noc2C)n1	·	13%	·	·
28	COc1ccc(OC)c(-c2cc(C(=O)Nc3c(C)nn(Cc4ccccc4Cl)c3C)no2)c1	-0.9	-5%	35µM*	-1
29	COc1cc(CCN2C(=O)c3cccc4cccc(c34)C2=O)c(S(=O)(=O)NCCO)cc1OC	4.5	15%	-1.1%	7
30	CCOc1ccccc1N1CC(C(=O)N(C)Cc2cccnc2)CC1=O (stereo not given)	7.1	4%	·	8
31	CC1CCc2cc(F)ccc2N1C(=O)C12CCC(C)(C(=O)O1)C2(C)C (stereo not given)	2.6	2%	·	3
32	O=C(CSc1nnc2ccc(-c3cccnc3)nn12)Nc1cccc(F)c1	·	1%	-1.6%	1
33	Cc1ccc(CC(=O)N2CCC(c3nc4c(nnn4Cc4ccccc4)c(=O)[nH]3)CC2)cc1	0.6	0%	-0.9%	-3
34	COc1ccc(-n2nc3c(c2NC(=O)CBr)CSC3)cc1	3.4	18%	-0.4%	4
35	O=C(N/N=C/c1ccccc1C(F)(F)F)c1ccc(O)cc1	-3.8	·	·	1
36	c1ccc2c(c1)nc(N1CCCCC1)c1ccccc12	1.1	0%	·	-4

no.	Sfp PPTase inh	gsp agonist	D2 PAM
25	·	15%[15.4 µM]	-16
26	7%	-42%[inhibitor]	2
27	·	?	-12
28	7%	-30%	-5
29	5%	-17%	-5
30	17%	-14%	-3
31	-18%	-9%[15.4 µM]	1
32	·	27%	-25
33	-7%	15%	0
34	-18%	5%	-2
35	17%	9%[15.4 µM]	3
36	-11%	-4%[15.4 µM]	-9

Full records from above. Screens in order: Menin-MLL FL inh	gsp antag	ClpP mod	TRPV1 potentiator	Sfp PPTase inh	gsp agonist	D2 PAM
COc1ccc(-n2nc3c(c2NC(=O)CBr)CSC3)cc1 across the screens: 3.4	18%	-0.4%	4	-18%	5%	-2
COc1ccc(OC)c(-c2cc(C(=O)Nc3c(C)nn(Cc4ccccc4Cl)c3C)no2)c1 across the screens: -0.9	-5%	35µM*	-1	7%	-30%	-5

Continued.
no.	SMILES	Menin-MLL FL inh	gsp antag	ClpP mod	TRPV1 potentiator
37	Cn1c(=O)c2c(SC3CCCC3)nc(C3CC3)nc2n(C)c1=O	5.9	-4%	-0.3%	·
38	CCN1C(=O)/C(=C/c2cccs2)S/C1=N\S(=O)(=O)c1ccc(C)cc1	3.1	1%	5.7%	0
39	O=[N+]([O-])c1cccc(C=NNc2ccccc2)c1	·	-21%	0.1%	·
40	CCOCCN1CCN(C(=O)CN2CCCC2=O)CC1	·	-1%	-2.0%	-10
41	CCOc1ccc(C2/C(=C(\O)c3ccc(OC)c(OC)c3)C(=O)C(=O)N2c2cc(C)on2)cc1OC (stereo not given)	1.0	-4%	-0.3%	13
42	O=C(NCc1ccc2c(c1)OCO2)c1ccc(S(=O)(=O)C(F)F)cc1	1.4	-2%	-0.3%	-8
43	O=C(Nc1ccc(F)cc1Cl)C1=COCCO1	·	5%	·	-6
44	CCCCCCCC(=O)Nc1cc(C(=O)NCCC)ccc1N1CCC2(CC1)CC(c1ccccc1)=NO2	1.3	-14%	-26%	2
45	CC(C)c1cc(C(N)=O)c(NC(=O)C2CCC2)s1	5.5	-16%	0.2%	-1
46	CCCCN(C)Cc1c(C)[nH]c2ccccc2c1=O	-0.2	3%	·	5
47	CC1=Nc2cc(C(=O)O)ccc2Sc2ccc(Br)cc21	5.1	-12%	0.1%	20
48	CCCn1cc(S(=O)(=O)CC(=O)Nc2ccc(OC)cc2OC)c2ccccc21	1.9	-10%	0.0%	6
49	O=C(c1ccco1)N1CCN(c2ncccn2)CC1	4.3	8%	-5.7%	·
50	CN1CCN(CCC(=O)N/N=C/c2cc([N+](=O)[O-])ccc2O)CC1	5.8	7%	0.4%	-3
51	COCCNC(=O)c1ccc2c(c1)nc(C)n2-c1cccc(F)c1	-0.1	4%	-14%	-15

no.	Sfp PPTase inh	gsp agonist	D2 PAM
37	2%	-2%	-3
38	21%	8%	-5
39	·	8%[15.4 µM]	-7
40	2%	12%[15.4 µM]	-10
41	0%	15%	8
42	1%	-22%	-10
43	·	-18%[15.4 µM]	-3
44	-13%	·	-5
45	-18%	-5%	-3
46	-3%	-46%[inhibitor]	-1
47	19%	-3%	-5
48	9%	20%	68*
49	17%	16%	0
50	-7%	4%	3
51	22%	-2%	-9
